Compound activity: PubChem BioAssay, several laboratories
PrP 5UTR inh = suppresses PrP 5' UTR mRNA reporter expression; cell-based PrP 5' UTR mRNA reporter, plate reader; inhibition, % (test concentration not listed); 0.35% of 340,000 active; AID 488862;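 active means every replicate at 50% or more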;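 further: 0 = median of the neutral control wells; tested in H4 reporter cells; numbers are from one replicate; inactives centre near -14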
Sa RN4220 lethal = kills Staphylococcus aureus RN4220; inhibition, % (test concentration not listed); 0.33% of 330,000 active; S. aureus RN4220 growth, OD600, 16 h; AID 1259311;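 active means z-score of -3 or lower and OD600 up to 0.18 on both plates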;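 further: plate controls were untreated cells for no effect and reference antibiotic for full effect; stock transfer was 100 nL into about 80 µL; one replicate is shown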
BJeLR viability = BJeLR cell viability loss. inhibition, % (test concentration not listed). BJeLR (HRASV12) viability, CellTiter-Glo ATP luminescence, 48 h; reference of the scale not given here. 0.17% of 300,000 active;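 active means replicate mean above 50%; inconclusive means above 50% but judged a plate artefact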;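 further: 50 nL library stock added to about 25 µL; numbers are from one replicate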
Mtb hypoxia rep = reduces hypoxia-regulated biosensor signal in M. tuberculosis. M. tuberculosis hypoxia-regulated fluorescent reporter, fluorescence. fluorescence inhibition, % (test concentration not listed). 0.1% of 300,000 active. AID 1159583;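 active means 35 to 45% if threefold the growth effect, above 45% if 1.5-fold the growth effect; inactive means the rest, general growth blockers included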;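 further: wells of about 50 µL received 100 nL stock; 0% = vehicle wells and 100% = reference inhibitor wells; whole bacteria with a GFP reporter of the hypoxia response; strong numbers were not always called active; many hits fall short of the cut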
Sa ugtP lethal = kills S. aureus RN4220 lacking UgtP | S. aureus RN4220 ugtP deletion, OD600 growth, 16 h; some inactives read as strong as hits | growth inhibition, % (no concentration beside the values) | 0.54% of 330,000 active | AID 1259309;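 active means z-score under -3 and OD600 up to 0.15 on both plates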;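 further: plate controls were untreated wells for no effect and antibiotic for full effect; wells of about 80 µL received 100 nL stock; the first replicate is given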
Bead autofluor = flagged as autofluorescent in microsphere protease counterscreen. 3.1% of 360,000 active. fluorescence intensity (concentration not given with the values). compound autofluorescence counterscreen, microsphere flow cytometry; active compounds read high;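 active means at least 3 SD above the mean of all compounds, about 16000 in these data; inconclusive means too few beads counted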;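 further: 100 nL of 1 mM stock went into each well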
Mtb hypoxia rep growth = recorded beside Mtb hypoxia rep, whose call it bears; growth inhibition, %; measured here: M. tuberculosis growth (absorbance);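 0% = vehicle and 100% = reference antibiotic; read after six days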
* marks the source's active call; other numbers are inactive results; ? = inconclusive; / = not tested or not shown. Hits appear at their usual frequency. About 4% of those tested had a hit in this group.

SMILES | PrP 5UTR inh | Sa RN4220 lethal | BJeLR viability | Mtb hypoxia rep | Mtb hypoxia rep growth | Sa ugtP lethal | Bead autofluor
C#CCN(C(=O)c1cc(COc2ccc(C)c(C)c2)on1)C1CCCCC1 | 1 | 5.8 | -1 | 3 | 6 | -3 | 6148
O=C(C1=C[C@H](c2ccc(Br)cc2)C[C@H](OCc2ccc(CO)cc2)O1)N1CCN(Cc2ccc3c(c2)OCO3)CC1 | -23 | / | -3 | / | / | / | 4181
COc1ccc(-c2ccc([C@H]3[C@H]4C=CC[C@@H](C)[C@@H]4C(=O)N3Cc3ccccc3)c(F)c2)cc1OC | -22 | / | -1 | / | / | / | 4088
CCc1nc(SCC(=O)N2c3ccccc3Sc3ccccc32)c2ccccc2n1 | -24 | 0.7 | 2 | 6 | 9 | -1 | 8340
Cn1c(=O)c2[nH]c(Nc3ccccc3)nc2n(C)c1=O | -9 | 2.5 | 3 | / | / | -4 | 3608
COc1ccccc1N1CCN(C(=O)C(=O)c2c(C)n(C)c3ccccc23)CC1 | 0 | 0.2 | 6 | -6 | 2 | 0 | 5543
FC(F)Oc1ccc(NC(=S)NC2CCSc3ccccc32)cc1 (stereo not given) | -9 | 3.3 | -1 | 0 | 3 | -38 | 4919
O=C(O)Cc1ccc2c(c1)N(S(=O)(=O)c1cccs1)CC(C(=O)O)O2 (stereo not given) | -3 | -0.2 | -4 | -2 | -7 | 4 | 5711
Cc1nn(-c2ccccc2)c(Cl)c1C=NNC(=O)CCNc1n[nH]c(=O)[nH]c1=O | / | 4.3 | / | 13 | 10 | 10 | /
O=C(N=C1SC2CS(=O)(=O)CC2N1c1cc(Cl)ccc1Cl)C1CCCO1 (stereo not given) | -19 | 5.2 | 0 | -2 | -6 | 10 | 4381
COc1ccc(C(=O)N2CCCC(CCC(=O)NCc3ccc(F)c(F)c3)C2)cc1F (stereo not given) | -34 | 5.9 | 4 | 13 | 3 | 11 | 4506
Cc1cc(NC(=O)CSCC(=O)N(C)Cc2c(F)cccc2Cl)no1 | -12 | 2.5 | 1 | 0 | 14 | 3 | ?
O=C1/C(=C/c2cccs2)SC(=S)N1C1CCS(=O)(=O)C1 (stereo not given) | / | 4.9 | 3 | 6 | 5 | 9 | /
CCN(CC)S(=O)(=O)c1cccc(NC(=O)COC(=O)C2=COCCO2)c1 | -15 | 1.5 | / | -1 | 8 | -4 | 8250
CCn1c2ccccc2c2nnc(SCC(=O)Nc3c(C)n(C)n(-c4ccccc4)c3=O)nc21 | -22 | 3.2 | -2 | -7 | -6 | -6 | 4414
O=C(Cc1ccccc1)Nc1nc2ccccc2s1 | -45 | 1.0 | 7 | / | / | -6 | 5184
NC(=O)CN1N=C(c2cc(Cl)sc2Cl)CSC1=O | -17 | 4.0 | -2 | 5 | 10 | 6 | 6856
COc1cc(OC)cc(C(=O)N2CCC(C(=O)NCCc3ccccc3)CC2)c1 | -29 | 2.8 | -10 | 18 | 6 | 10 | 3935
CCOC(=O)C1CCN(C(=O)/C=C/c2ccccc2OC)CC1 | 4 | 3.6 | 1 | / | / | 8 | 3489
Cc1noc(C)c1CS(=O)(=O)c1ccc([N+](=O)[O-])cc1 | -15 | 41 | -2 | -7 | -22 | 42 | 4583
COc1ccc(OC)c(NC(=O)CCN2CCN(C/C=C/c3ccccc3)CC2)c1 | -6 | 1.8 | -19 | 14 | 3 | 5 | 3295
O=CN1CCN(C(=O)Cc2ccc([N+](=O)[O-])cc2)CC1 | -23 | 3.4 | -12 | 9 | 10 | -1 | 2579
Cc1ccccc1NS(=O)(=O)c1ccc(-c2ccc(=O)[nH]n2)o1 | -19 | -2.5 | 5 | -5 | 5 | -5 | 6230
CC(=O)NS(=O)(=O)c1ccc(NC(=O)c2ccccn2)cc1 | -20 | 1.9 | 5 | 10 | 4 | -65 | 4689
NC(=O)c1c(NC(=O)COC(=O)c2ccc(S(=O)(=O)Nc3ccccc3)cc2)sc2c1CCCC2 | -26 | -17 | 1 | 11 | -5 | 10 | 3749

Of the compounds above, these contain an NH in an aromatic ring:
SMILES | PrP 5UTR inh | Sa RN4220 lethal | BJeLR viability | Mtb hypoxia rep | Mtb hypoxia rep growth | Sa ugtP lethal | Bead autofluor
Cn1c(=O)c2[nH]c(Nc3ccccc3)nc2n(C)c1=O | -9 | 2.5 | 3 | / | / | -4 | 3608
Cc1nn(-c2ccccc2)c(Cl)c1C=NNC(=O)CCNc1n[nH]c(=O)[nH]c1=O | / | 4.3 | / | 13 | 10 | 10 | /
Cc1ccccc1NS(=O)(=O)c1ccc(-c2ccc(=O)[nH]n2)o1 | -19 | -2.5 | 5 | -5 | 5 | -5 | 6230

Going on with the list:
SMILES | PrP 5UTR inh | Sa RN4220 lethal | BJeLR viability | Mtb hypoxia rep | Mtb hypoxia rep growth | Sa ugtP lethal | Bead autofluor
CCN1CCCC1CN=Cc1c(O)n(-c2ccccc2)c(=O)c2ccccc12 (stereo not given) | -27 | -2.5 | 1 | -5 | -2 | -8 | 27436*
COc1cccc(S(=O)(=O)Nc2noc3ccccc23)c1 | -15 | -0.6 | 1 | -11 | -1 | -10 | 3983
CC(C)C(=O)Nc1c(-c2cccs2)c(=O)c2ccccc2n1C | -2 | 5.5 | 0 | 7 | 6 | 1 | 11192
CCOC(=O)c1c(-c2ccccc2)csc1NC(=O)c1cc2ccccc2oc1=O | -16 | 9.6 | 7 | 16 | 15 | -10 | 2123
O=C1c2ccccc2C(O)(Cc2ccccc2)N1c1ccc2c(c1)OCO2 (stereo not given) | -8 | 2.1 | 6 | 2 | -2 | -8 | 12623
Cc1c([N+](=O)[O-])c(C(=O)N2CCCC2)nn1C | -24 | 0.7 | -6 | -2 | 2 | -2 | 22515*
CCCCn1c(N)c(N(CCOC)C(=O)C2CCN(S(=O)(=O)c3ccc(C)cc3)CC2)c(=O)[nH]c1=O | -1 | 1.1 | -19 | 0 | 4 | -3 | ?
CCOC(=O)c1c(-c2ccc(Cl)cc2)cn2ccccc12 | -21 | 5.1 | 5 | / | / | 4 | 2470
CCc1nc2ccc(C(=O)Nc3cccc(C(C)=O)c3)cc2nc1CC | -25 | -1.9 | 2 | -7 | -4 | 10 | 7977
O=C(O)c1ccc(NC(=O)c2ccccc2Br)c(NC(=O)c2ccccc2Br)c1 | -14 | 0.8 | 2 | -6 | -4 | 4 | 3906
CCN(CC)C(=O)c1c(Cl)nc(C)c([N+](=O)[O-])c1C | -8 | -4.6 | 4 | 4 | 1 | 1 | 8489
CC(C(=O)NC1CCCCCC1)n1cc([N+](=O)[O-])cn1 (stereo not given) | -13 | 2.7 | 6 | 11 | 13 | 7 | 3507
CCc1cc2c(=O)c(-c3cnn(-c4ccccc4)c3)c(C)oc2c(CN2CCCCC2)c1O | -19 | 2.1 | 0 | 1 | 5 | -2 | 9143
COC(=O)c1c(C(=O)OC)c2ccccn2c1C(=O)c1ccc([N+](=O)[O-])cc1 | -2 | 2.5 | -14 | 5 | -4 | 2 | 3275
CCOC(=O)N1CCN(C(=O)CSc2nnc(Cn3c(=O)sc4ccccc43)n2C)CC1 | -16 | 0.8 | / | / | / | 4 | 5686
O=S(=O)(Cc1nnnn1-c1ccccc1)c1ccc(F)cc1 | -37 | 7.2 | -3 | 14 | 6 | -1 | 5324
Cc1ccc(/C=N/NC(=O)c2csc(C)c2)o1 | -22 | / | 6 | / | / | / | 9100
CCN(CC)c1ccc(S(=O)(=O)N2CCOCC2)cc1NC(=O)CSC(=S)N1CCCC1 | 8 | 7.1 | 6 | -1 | 2 | 0 | 6403
COc1cc(/C=C/C(=O)O)cc2c1OCCO2 | -16 | 3.6 | 19 | 5 | 5 | 3 | 4580
O=C(NCc1cccc(C(F)(F)F)c1)C1CC(c2ccc(C(F)(F)F)cc2)=NO1 (stereo not given) | -24 | 3.1 | 12 | 6 | 7 | 17 | 3074
Cc1cc(C)n(-c2nc3ccccc3n3nnnc23)n1 | -20 | -1.6 | -1 | / | / | 5 | 4595
Cc1nonc1NC(=O)CSc1nnc(-c2ccoc2C)n1-c1cccc(Cl)c1 | -9 | 3.9 | 2 | 7 | 6 | -6 | 3636
O=C(CSc1nc2ccccc2n1CCc1ccccc1)NC1CC1 | -18 | 4.7 | -1 | 12 | 3 | 2 | 2176
COc1ccc(C(=O)N2CCN(c3cccc(Cl)c3)CC2)c(OC)c1 | -28 | 1.8 | 3 | / | / | -3 | 4928
CC(C)CSc1ncc(-c2cccc(C(F)(F)F)c2)cn1 | -15 | 5.8 | 3 | 4 | 8 | 29 | 19690*

Already shown: an excerpt of the list.
SMILES | PrP 5UTR inh | Sa RN4220 lethal | BJeLR viability | Mtb hypoxia rep | Mtb hypoxia rep growth | Sa ugtP lethal | Bead autofluor
C#CCN(C(=O)c1cc(COc2ccc(C)c(C)c2)on1)C1CCCCC1 | 1 | 5.8 | -1 | 3 | 6 | -3 | 6148
O=C(C1=C[C@H](c2ccc(Br)cc2)C[C@H](OCc2ccc(CO)cc2)O1)N1CCN(Cc2ccc3c(c2)OCO3)CC1 | -23 | / | -3 | / | / | / | 4181

Next part:
SMILES | PrP 5UTR inh | Sa RN4220 lethal | BJeLR viability | Mtb hypoxia rep | Mtb hypoxia rep growth | Sa ugtP lethal | Bead autofluor
COc1ccc(Cc2nc(C(=O)NCc3ccccc3OC)cs2)cc1 | -9 | -1.0 | -6 | / | / | 12 | 2759
O=C(N/N=C/c1c[nH]c2ccc(Br)cc12)c1ccn(Cc2ccc(Cl)cc2Cl)n1 | 5 | / | 2 | / | / | / | 5662
Cc1cccc(/C(N)=N/OC(=O)Cc2cccc3ccccc23)c1 | -8 | -1.1 | -5 | 1 | 1 | 5 | 1987
COc1ccc(CNC(=O)CN2C(=O)COc3ccc(S(=O)(=O)N4CCCC4)cc32)cc1 | -22 | 3.2 | 9 | 4 | 8 | 7 | 5784
COc1ccc(CN2CCC(N(CCc3ccccc3)Cc3ccccc3)CC2)c(OC)c1 | -25 | / | -2 | / | / | / | 5135
Cc1cn(C(CCCCNC(=O)OC(C)(C)C)C(=O)NCCCCCCCCCCC(=O)N2CCN(C(=O)OC(C)(C)C)CC2)nn1 (stereo not given) | / | -8.7 | / | -9 | 8 | 3 | /
O=C(O)C1CSC(CCc2ccccc2)N1 (stereo not given) | -13 | -9.7 | 2 | 12 | 4 | -7 | 2680
CCC(C(=O)Nc1ccc(N2CCOCC2)c(S(=O)(=O)Nc2ccccc2OC)c1)c1ccccc1 (stereo not given) | -7 | -9.6 | / | 1 | 7 | -17 | 3731
Cc1cc(C)c(C(=O)CSc2n[nH]c(=O)n2C2CC2)cc1C | -6 | -1.0 | 11 | / | / | -5 | 4050
OC(c1ccc(F)cc1)(C1CCCCC1)C(CN1CCOCC1)c1ccccc1 (stereo not given) | -4 | 3.1 | -1 | 3 | 4 | 13 | 3456
Clc1ccc(-c2nnc(-c3ccco3)nc2N2CCCCC2)cc1 | -1 | 3.3 | 4 | 10 | 15 | -2 | 2514
O=C(NCCc1ccc(C(F)(F)F)cc1)C1CCC(=O)N(C2CC2)C1 (stereo not given) | -3 | 3.4 | -4 | 0 | 5 | 3 | 5733
Cc1cc(Nc2ccccc2)nn1C(=O)c1ccc(Br)cc1 | -2 | -10 | -4 | 3 | 1 | -2 | 2884
O=C(N/N=C/c1cccc(Oc2ccccc2)c1)c1cccc(Br)c1 | -26 | / | 7 | / | / | / | 4920
COCCn1nnnc1C(c1ccc(OC)c(OC)c1)N1CCN(c2nc3ccccc3s2)CC1 (stereo not given) | -19 | 2.0 | 3 | / | / | -2 | 2508
O=S(=O)(c1ccccc1)N1CCNc2ccccc21 | -13 | 7.7 | / | 9 | 8 | 2 | 3012
Cc1nn(-c2ccc(F)cc2)c2nc(N)c(C#N)c(-c3cccs3)c12 | -2 | -0.4 | 2 | 7 | 28 | 27 | 3654
COC(=O)c1ccc(-n2nnnc2SCC(=O)Nc2ccccc2OC)cc1 | -28 | 4.5 | -1 | 4 | 8 | -11 | 10525
